Rango dissoc inh: qHTS Assay for Inhibitors of RanGTP induced Rango (Ran-regulated importin-beta cargo) - Importin beta complex dissociation; Biochemical FRET Rango-importin beta, RanGTP-induced dissociation; Potency, µM (titrated, usually from 46.1 µM), without a hit: top-dose activity change, negative = inhibition; 340,000 tested, 0.071% active; AID 540253, 2011; active means falling FRET ratio curve, often poorly fitted, with flat reads before Ran was added; inconclusive means other falling curves, or compound fluorescence or quenching; inactive means flat or rising ratio curve;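 further: potency means the concentration at half of the fitted maximal effect; % of control where 0% means no effect; nearly all actives have a fitted effect of over 45% in size; -100% = wells without RanGTP and RCC1; the record marks most hits as doubtful in a second field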
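Recombinant Rango FRET biosensor (EYFP–snurportin 1 IBB–cerulean CFP10) at 0.1 uM premixed with 0.25 uM importin beta in PBS, 1 mM DTT, 0.02% Tween-20, 0.1% BSA. Compound added 5 min; RanGTP-RCC1 (0.6 uM Ran, 2 mM GTP, 0.2 uM RCC1) then triggers release, read at 45 min.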
Rango-impB inh: qHTS Assay for Inhibitors of Rango (Ran-regulated importin-beta cargo) - Importin beta complex formation; Rango CFP/YFP FRET sensor + importin beta, 45 min; Potency, µM (highest dose often 92.2 µM), for the others: at the highest dose inhibition of complex formation; 340,000 tested, 0.031% active; AID 540263, 2011; active = rising FRET ratio curve, often small or poorly fitted; inconclusive = mostly compound fluorescence or quenching in the first reads; inactive = flat curves in all reads;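 further: potency means the concentration at half of the fitted maximal effect; 0% = DMSO wells and 100% = buffer wells lacking importin beta; nearly all actives have a fitted effect of over 15% in size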
Target sequence (Q14974 whole entry, looked up): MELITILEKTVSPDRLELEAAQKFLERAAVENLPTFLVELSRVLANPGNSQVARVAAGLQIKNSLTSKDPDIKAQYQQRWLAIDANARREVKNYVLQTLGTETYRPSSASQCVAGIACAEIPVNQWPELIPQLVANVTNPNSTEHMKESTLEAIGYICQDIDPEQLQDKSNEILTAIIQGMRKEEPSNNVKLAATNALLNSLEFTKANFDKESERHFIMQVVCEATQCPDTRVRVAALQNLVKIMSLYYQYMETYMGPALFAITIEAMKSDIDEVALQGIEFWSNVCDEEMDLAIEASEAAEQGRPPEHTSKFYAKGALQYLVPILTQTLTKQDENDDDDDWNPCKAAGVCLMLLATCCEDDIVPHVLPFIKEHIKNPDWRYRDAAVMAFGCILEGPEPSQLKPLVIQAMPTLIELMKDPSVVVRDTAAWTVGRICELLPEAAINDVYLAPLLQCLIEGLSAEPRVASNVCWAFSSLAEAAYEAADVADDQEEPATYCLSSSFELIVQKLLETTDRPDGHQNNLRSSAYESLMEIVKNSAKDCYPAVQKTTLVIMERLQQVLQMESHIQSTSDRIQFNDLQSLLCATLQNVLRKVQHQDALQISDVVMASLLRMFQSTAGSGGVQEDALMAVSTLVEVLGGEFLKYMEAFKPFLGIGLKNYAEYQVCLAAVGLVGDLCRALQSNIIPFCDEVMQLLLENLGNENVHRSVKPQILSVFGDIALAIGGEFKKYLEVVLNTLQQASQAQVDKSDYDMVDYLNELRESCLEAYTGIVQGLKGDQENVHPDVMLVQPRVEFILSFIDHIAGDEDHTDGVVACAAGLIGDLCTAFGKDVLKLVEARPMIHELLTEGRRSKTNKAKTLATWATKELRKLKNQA
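Inhibition scored from the CFP 486 nm/YFP 530 nm FRET ratio 45 min after adding 0.125 microM importin beta to 50 nM Rango biosensor preincubated 5 min with compound (room temperature, PBS with DTT, Tween-20, BSA). No-importin wells as positive control.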
miR-21 FLuc: qHTS Assay for Modulators of miRNAs and/orActivators of miR-21; AID 2288, 2010; 340,000 tested, under 10 active; HeLa miR-21 FLuc reporter, luciferase, 48 h; Potency, µM (highest dose often 38.3 µM), for inactives: at the highest dose reporter change, positive = more light; active = well fitted rising curve with a large enough effect; inconclusive = small, poorly fitted or top-dose-only effect; inactive = no such curve, though single readings can be large or run the other way;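 further: % of control where 0% means no effect; miR-21 action dims this reporter so a rising signal means less miR-21 action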
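Luminescence from a firefly luciferase reporter carrying a miR-21 binding site downstream, stably expressed under a CMV promoter in HeLa cells that make miR-21 endogenously, reports miRNA modulation after 48 h compound exposure up to approximately 40uM final.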
GLA inh pH 4.5: qHTS Assay for Inhibitors of Human alpha-Galactosidase at pH 4.5. purified enzyme, 4-MU-alpha-Gal fluorescence, pH 4.5. activity change, negative = inhibition, % at 105 µM. 230,000 tested, under 10 active. AID 1467, 2008; inconclusive = small, poorly fitted or top-dose-only inhibition, or a rising curve; inactive = flat fitted curve, though single readings scatter; no compound was filed as active;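 further: 0% = full activity with enzyme and -100% = basal without enzyme; dose as in the result columns while the protocol names 77 µM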
Starred values were filed as active, the others as inactive; ? = inconclusive; / = not tested or not shown; & = joins results of further samples. Not all compounds are listed; the hit share may differ from the screen's.

SMILES	Rango dissoc inh	Rango-impB inh	miR-21 FLuc	GLA inh pH 4.5
COc1ccc(CCN2C(=O)C(O)=C(C(=O)c3ccco3)C2c2cccs2)cc1OC (stereo not given)	-4%	3.0%	-13%	-7
COc1cccc(CNC(=O)COC(=O)/C=C/c2ccc(SC)cc2)c1	1%	1.6%	/	/
Cn1c(N)c(C(=O)COC(=O)CCC(=O)c2cccs2)c(=O)n(C)c1=O	2%	-3.2%	-5%	-2
CN(c1ccccc1)S(=O)(=O)c1nnc(NC(=O)COc2ccccc2F)s1	-15%	-3.0%	-2%	/
O=C(CN1CCC(c2nc3ccccc3[nH]2)CC1)NCc1ccc2c(c1)OCO2	1%	-1.1%	-10%	4
Cc1ccc(NC(=O)[C@H](Cc2c[nH]c3ccccc23)NC(=O)[C@@H]2Cc3ccccc3CN2)c(C)c1	-4%	?	14%	/
CC(C)OC(=O)/C(C#N)=C\c1cccnc1	-5%	-2.7%	-2%	-9
Clc1cccc(-c2nn3c(-c4cccc(Cl)c4)nnc3s2)c1	/	/	-1%	-4
N#C/C(=C\c1ccccc1C(=O)O)c1nc2ccccc2[nH]1	?	?	-41%	/
Cc1cc(C)cc(NS(=O)(=O)c2ccc3[nH]c(=O)ccc3c2)c1	-2%	-0.4%	7%	/
Cc1cc(C)cc(NC(=O)Nc2ccc(NC(=O)c3ccccc3O)cc2)c1	1%	0.3%	0%	/
Cc1c(C(=O)Oc2ccc(F)cc2)sc2ncn(Cc3cccc(F)c3)c(=O)c12	9%	4.5%	-2%	-10
Cc1ccccc1C=Nc1ccccc1C(N)=O	4%	-4.8%	19%	-10
NNc1nc(-c2ccccc2)c2ccccc2n1	2%	0.1%	-4%	?
COCc1nc2ccccc2n1Cc1ccccc1	-1%	2.7%	-40%	-10
CCOC(=O)CNC(=S)N(Cc1cccs1)C1CCCCC1	-3%	-0.7%	-2%	3
CCc1ccccc1NC(=O)CN(c1ccc(OC)cc1OC)S(=O)(=O)c1ccccc1	-4%	5.4%	7%	/
Cc1c(/C=N/NC(=O)c2ccc(O)cc2)c2ccccn2c1C(=O)c1ccc(F)cc1	?	?	-9%	-3
O=C(Cn1nc(-c2cccc(Cl)c2)ccc1=O)Nc1ccc(C(=O)NC2CC2)cc1	-1%	-0.3%	-1%	6
O=C(O)CCC(=O)Nc1nc2ccccc2s1	14%	-3.1%	-1%	10
Cc1ccc(NC(=O)COC(=O)CSCC(=O)Nc2cc(C)on2)c(C)c1	6%	-3.5%	/	/
COc1cccc(/C=C/C(=O)OCC(=O)Nc2ccc(Cl)c(S(=O)(=O)N(C)C)c2)c1	20%	-2.0%	0%	-3
O=C(COC(=O)c1ccccc1Oc1ccccc1)NCc1ccco1	-9%	-1.5%	-2%	4
O=C(NCc1ccccn1)c1ccc(/C=N/O)nc1	-1%	2.1%	-2%	-3
Cn1nnc(NC(=O)/C=C/c2ccco2)n1	-8%	-0.6%	1%	2
Going on with the list:
SMILES	Rango dissoc inh	Rango-impB inh	miR-21 FLuc	GLA inh pH 4.5
Cc1ccc(NC(=S)NC(=O)C2CCCCC2)c(Br)c1	-10%	-6.6%	/	/
O=C1CC(SC(=Nc2ccccc2)Nc2ccccc2)C(=O)N1c1ccc(Cl)c(Cl)c1 (stereo not given)	3%	-7.3%	?	-14
O=C(c1cccc([N+](=O)[O-])c1)N1CCN(S(=O)(=O)/C=C/c2ccccc2)CC1	1%	-2.3%	/	/
OCCN(/C=N/c1nc(-c2ccc(Br)cc2)cs1)CCO	6%	0.7%	-52%	-5
CC(=O)Nc1cc2c3ccccc3n(C)c2cc1[N+](=O)[O-]	22%	1.3%	/	/
CNC(=O)N(O)C1N(/N=C/c2cc(Br)ccc2O)C(=S)SC1(C)C (stereo not given)	?	0.2%	-11%	/
CCSc1ccc(NC(=O)c2cccnc2)cc1	-4%	3.5%	-27%	-3
COc1ccc(NC(=O)c2cncc(Br)c2)cc1S(N)(=O)=O	3%	0.1%	-2%	1
Cc1ccccc1NC(=O)c1cccc(Cn2cc(Br)c([N+](=O)[O-])n2)c1	-12%	1.2%	-1%	-14
COc1cc(CNCc2ccc(Br)cc2)cc(OC)c1	6%	1.8%	-20%	/
CC1Oc2ccccc2OC1(O)c1ccccn1 (stereo not given)	-8%	-0.5%	0%	3
COc1ccc(C(=O)N(C)Cc2ccc(C)o2)cc1OC1CCN(C(C)C)CC1	-6%	-2.4%	-1%	/
Cc1ccc(C2CC(c3ccc(NS(C)(=O)=O)cc3)=NN2C(=O)c2ccco2)cc1 (stereo not given)	-2%	0.3%	-2%	8
CCOc1ccccc1Oc1c(C)oc2c(CN3CCN(CCO)CC3)c(O)ccc2c1=O	2%	3.0%	-6%	-12
O=C(Nc1cccc2ccccc12)OCc1cncs1	-16%	-0.6%	-46%	-2
O=C(O)c1cc(-n2cccc2)ccc1N1CCOCC1	-6%	0.9%	-3%	-3
CCOC(=O)NC(=O)/C(C#N)=C\Nc1sccc1C(=O)OC	6%	-3.3%	3%	-7
C/C(CCc1ccco1)=N/NC(=O)CCC(=O)Nc1ccc(Br)cc1	-5%	-3.7%	-22%	5
COc1cc(/C=C2\CCc3ccccc3C2=O)cc(OC)c1OC	-5%	2.3%	24%	-2
CCCCN1CC[C@H]2C=CC[C@@H](C(=O)Nc3ccc(Cl)c(C(F)(F)F)c3)[C@H]2C1=O	8%	3.7%	/	/
CCN1CCCCC(=N/O)/C(=N/O)CCCC1	-5%	-0.9%	3%	-6
O=C(Cn1cnc2ccccc21)N/N=C/c1ccccc1[N+](=O)[O-]	-9%	-2.2%	-3%	7
CCOC(=O)C(CCSC)NC(=O)CN (stereo not given)	-4%	1.2%	0%	0
CC1CCN(C(=O)C2CCCN(S(C)(=O)=O)C2)CC1 (stereo not given)	1%	-0.5%	0%	-6
O=C(OCC(=O)N1CCCc2ccccc21)c1cncc(Br)c1	17%	0.1%	-1%	-8

Next part, overlapping the part above by 5 compounds.
SMILES	Rango dissoc inh	Rango-impB inh	miR-21 FLuc	GLA inh pH 4.5
CCN1CCCCC(=N/O)/C(=N/O)CCCC1	-5%	-0.9%	3%	-6
O=C(Cn1cnc2ccccc21)N/N=C/c1ccccc1[N+](=O)[O-]	-9%	-2.2%	-3%	7
CCOC(=O)C(CCSC)NC(=O)CN (stereo not given)	-4%	1.2%	0%	0
CC1CCN(C(=O)C2CCCN(S(C)(=O)=O)C2)CC1 (stereo not given)	1%	-0.5%	0%	-6
O=C(OCC(=O)N1CCCc2ccccc21)c1cncc(Br)c1	17%	0.1%	-1%	-8
CCC/C(O)=C1\C(=O)CCCC1=NCCc1c(C)[nH]c2ccccc12	1%	0.6%	4%	-1
CC1CC(C)CN(CC(C)(C)NS(=O)(=O)c2ccc(Cl)cc2)C1 (stereo not given)	2%	4.1%	-4%	-8
CC(C)C(NC(=O)CN1C(=O)c2cccc3cccc1c23)C(C)C	?	?	-14%	/
C=CCc1c(C)nc(N)[nH]c1=O	-13%	?	0%	2
O=C(O)CCC(=O)NNC(=O)COc1ccc2ccccc2c1Br	8%	2.6%	4%	4
Cc1ncsc1CCOC(=O)c1ccc(N2CCOCC2)c([N+](=O)[O-])c1	-10%	5.2%	-10%	-14
O=C(N/C=C/c1ccc(Cl)cc1)NCc1ccc(Cl)cc1	-8%	3.2%	-5%	9
Cc1ccc(COC(=O)c2nn(-c3ccccc3)nc2N)cc1	2%	-1.3%	-2%	-11
Cc1cc(C(=O)Nc2sc3c(c2C#N)CCCCC3)cs1	9%	?	-50%	-5
CCCCOc1ccc(N(CC(=O)NCc2ccccc2)C(=O)c2csnn2)cc1	16%	-0.1%	-24%	/
COc1ccc(CNC(=O)C2CCN(C(=O)c3ccccc3)CC2)cc1	-1%	-2.1%	-5%	/
Cn1c(C(=O)OC(C(=O)NCc2ccco2)c2ccncc2)cc2sccc21 (stereo not given)	-10%	-2.2%	0%	-1
Cc1ccc(C2=NS(=O)(=O)N(C)C(C(=O)NCc3ccccn3)=C2)cc1	16%	3.1%	4%	/
CCCCSc1nc2sc3c(c2c(=O)[nH]1)CCC3	-11%	-3.5%	1%	3
COc1cccc(CNC(=O)C(=O)N2CCC3(CC2)OCCN3S(=O)(=O)c2ccc(C)cc2)c1	1%	1.8%	/	/
CCCn1c(=N)c(C(=O)NC2CCCC2)cc2c(=O)n3cccc(C)c3nc21	?	?	-2%&-3%	?
O=C(CN1C(=O)NC(c2ccccc2)(c2ccccc2)C1=O)c1c[nH]c2ccccc12	/	/	9%	-7
CN(C)CCN=Cc1c(O)n(Cc2ccccc2)c(=O)c2ccccc12	?	?	-7%	6
COc1ccc(C2N(c3cccc(Cl)c3)C(=O)C3CCCN32)cc1 (stereo not given)	4%	3.6%	-3%	6
Cc1cc(C)cc(Oc2cc(NC(=O)c3cn(C)nc3C)cc([N+](=O)[O-])c2)c1	-3%	-5.2%	-1%	3
O=[N+]([O-])c1ccc(NS(=O)(=O)c2cccc3cccnc23)cc1	-21%	0.8%	-11%	/
COc1cccc(Cn2nnc(C(=O)NCc3ccc(F)cc3)c2N)c1	-7%	4.0%	-9%	2
C=CCOC(=O)C1=C(C)NC(SCC(=O)Nc2nccs2)=C(C#N)C1c1ccc(Cl)cc1 (stereo not given)	?	?	21%	-11
CCOC(=O)C1=NN(C(C)=O)C2(CC(=O)N(c3cccc(C)c3)C2=O)C1 (stereo not given)	-29%	-0.1%	-6%	-11
Cc1ccc(-c2n[nH]c(=S)n2/N=C/C=C\c2ccccc2[N+](=O)[O-])cc1	-2%	1.7%	-7%	-7
More entries.
SMILES	Rango dissoc inh	Rango-impB inh	miR-21 FLuc	GLA inh pH 4.5
CCOC(=O)c1cc2cc(OC)ccc2[nH]1	13%	-2.6%	-28%	-8
COc1cc([N+](=O)[O-])ccc1NC(=O)CSc1ccccn1	/	/	-3%	6
O=C(C1CC(=O)N(c2ccc(F)cc2)C1)N1CCCCC1 (stereo not given)	8%	-3.2%	-1%	/
Cc1nn(C2CCS(=O)(=O)C2)c(Cl)c1/C=C/C(=O)OCC(=O)Nc1ccccc1OC(F)F (stereo not given)	1%	-0.3%	0%	9
C=CCc1c(C)nc(-c2ccccc2)nc1N/N=C/c1ccccc1	2%	2.3%	-5%	3
Cc1ccc(C(=O)O)cc1NC(=O)C1=CSCCO1	44%	5.8%	-2%	/
Cc1ccc(C)c(NS(=O)(=O)c2ccc(OCC(=O)N3CCOCC3)cc2)c1	34%	4.8%	0%	-5
Cc1ccc(C(=O)NCc2ccco2)cc1S(=O)(=O)Nc1cccc(C)c1C	15%	-1.6%	0%	-5
CC(C)CN(CC(C)C)C(=O)CC(=O)NC(=O)c1ccc(Cl)cc1	-5%	-3.4%	-3%	0
Cc1ccc(-n2nnnc2C(Cl)(Cl)c2nnnn2-c2ccc(C)cc2)cc1	1%	1.1%	3%	1
CCN(CCNCC(O)COCc1ccc(Cl)cc1)c1cccc(C)c1 (stereo not given)	4%	1.7%	5%	-8
O=[N+]([O-])c1nn(-c2cccc(Cl)c2)n(O)c1=NCc1cccnc1	-12%	-3.3%	-38%	-9
CCn1c(-c2cc(-c3ccccc3OC)nc3ccccc23)n[nH]c1=S	-1%	-1.8%	3%	3
Cc1cc(-c2csc(N)n2)c(C)n1CCc1ccccc1	?	?	4%	-3
COc1cccc(C(=O)N2CCC(C(=O)NCc3ccc(C)cc3)CC2)c1	-2%	3.4%	0%	/
CCOc1ccccc1N(C(=O)c1ccco1)C(C(=O)NC1CCCC1)c1cccs1 (stereo not given)	-2%	-2.5%	6%	/
COc1ccc(C(CNC(=O)CNC(=O)c2cccc(C)c2)N2CCCCC2)cc1 (stereo not given)	6%	-0.4%	/	/
